# Screens deposited in PubChem BioAssay by National Center for Advancing Translational Sciences (NCATS).
# ClpP mod: qHTS Assay for Activators of ClpP | ATP-dependent Clp protease proteolytic subunit (Bacillus subtilis (strain 168)), P80244 | purified B. subtilis ClpP, FRET peptide cleavage, 20 min | Potency, µM (top dose mostly 57.5 µM), inactives show at the highest dose activity change, negative = active | 1.9% of 340,000 active; active = well fitted falling curve with a large enough effect; inconclusive = small, poorly fitted or top-dose-only effect; inactive = no such curve, though single readings can be large or run the other way; further: potency means the concentration at half of the fitted maximal effect; the source files actives as falling curves though it sought activators and does not explain the sign; nearly all actives have a fitted effect of over 65% in size; many hits overshoot -100%
# Target sequence (P80244 whole entry, looked up): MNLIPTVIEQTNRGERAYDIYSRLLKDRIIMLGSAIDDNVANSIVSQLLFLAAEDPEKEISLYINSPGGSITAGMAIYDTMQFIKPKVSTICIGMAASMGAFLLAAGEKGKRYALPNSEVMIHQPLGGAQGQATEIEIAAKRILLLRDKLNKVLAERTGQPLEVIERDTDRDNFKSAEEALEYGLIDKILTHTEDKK
#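 ClpP 10 microg/mL final, pH 8 Tris/KCl buffer with BSA, glycerol, Tween-20; compound pinned in; FRET-FV substrate; RT 20 min; Ex320/Em430; ΔFRET vs ADEP 5.8 microM, DMSO, no enzyme.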
# PINK1 modulator: modulators of PINK1 expression. PINK1 immunofluorescence, high-content cytometry, 24 h. Potency, µM (highest dose often 76.6 µM), without a hit: at the top dose activation (PINK1 increase), actives largely listed as activators. 0.2% of 410,000 active. AID 624263; active = well fitted activation curve with a large enough effect; inconclusive = small, poorly fitted or top-dose-only effect; inactive = flat fitted curve, though single readings scatter; cell line not stated here;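 further: potency means the concentration at half of the fitted maximal effect; % of control where 0% means no effect; nearly all actives have a fitted effect of over 65% in size; a mitochondrial uncoupler was the plate control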
#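 Readout is PINK1 immunofluorescence, quantified alongside mitochondrial, cell and nuclear markers by laser-scanning microplate cytometry. Cells from a stable line were exposed to compound titrations (5 concentrations) for 24 hours, with CCCP controls.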
# TRPV1 potentiator: potentiators of human vanilloid receptor 1 (TRPV1); potentiation, % at 8.33 µM; TRPV1-expressing cells, Fluo-8 calcium influx, capsaicin EC20 potentiation; host cell line not named in the record; control for the full effect not named in the record; 0.02% of 320,000 active; Q8NER1; active means potentiation above 80%; inconclusive means 30% to 80%; inactive means below 30%; further: 0% is about no effect
# Target sequence (Q8NER1 whole entry, looked up): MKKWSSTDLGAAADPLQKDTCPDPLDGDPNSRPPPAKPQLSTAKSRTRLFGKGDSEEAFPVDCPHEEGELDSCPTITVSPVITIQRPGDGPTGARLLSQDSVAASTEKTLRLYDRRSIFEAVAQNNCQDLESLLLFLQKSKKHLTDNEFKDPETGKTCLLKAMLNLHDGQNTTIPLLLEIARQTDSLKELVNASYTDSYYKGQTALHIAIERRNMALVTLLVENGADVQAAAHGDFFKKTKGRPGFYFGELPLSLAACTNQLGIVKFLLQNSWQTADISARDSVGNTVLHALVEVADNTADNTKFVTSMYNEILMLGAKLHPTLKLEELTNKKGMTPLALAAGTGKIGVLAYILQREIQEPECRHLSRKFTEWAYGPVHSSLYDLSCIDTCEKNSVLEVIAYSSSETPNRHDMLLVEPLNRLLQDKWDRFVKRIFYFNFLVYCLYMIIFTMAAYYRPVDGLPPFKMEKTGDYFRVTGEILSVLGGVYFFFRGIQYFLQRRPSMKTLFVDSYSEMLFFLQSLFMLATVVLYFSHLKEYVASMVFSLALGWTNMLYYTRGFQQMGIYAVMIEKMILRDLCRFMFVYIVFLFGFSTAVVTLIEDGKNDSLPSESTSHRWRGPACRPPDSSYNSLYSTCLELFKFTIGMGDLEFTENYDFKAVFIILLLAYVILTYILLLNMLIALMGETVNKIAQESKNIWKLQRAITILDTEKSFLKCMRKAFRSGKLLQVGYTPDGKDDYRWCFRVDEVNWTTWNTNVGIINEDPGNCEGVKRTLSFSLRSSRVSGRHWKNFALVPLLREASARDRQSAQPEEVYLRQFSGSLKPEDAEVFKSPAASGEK
#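 TRPV1-expressing cells were cultured overnight at 35.5C and loaded with Fluo-8 calcium dye for 40 to 90 min at room temperature. After a 10 s baseline, compound was added and calcium influx was read kinetically for 3 min (ex 480/em 520 nm).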
# Sfp PPTase inh: Sfp phosphopantetheinyl transferase inhibition. Biochemical Sfp PPTase activity, qHTS. AID 1490. Potency, µM, inactives show max response, negative = inhibition, usual class: inhibitors. 3.5% of 310,000 active. Q9F4F7; active means well fitted inhibition curve with a large enough effect; inconclusive means small, poorly fitted or top-dose-only effect, or another doubt; inactive means no such curve, though single readings can be large or run the other way;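 further: the enzyme is Sfp with the accession as filed and its product quenches rhodamine fluorescence; potency means the concentration at half of the fitted maximal effect; 0% = enzyme reaction without inhibitor and -100% = no enzyme wells; top concentration of the series not given in the record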
#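 Reaction rates are the 30-min fluorescence difference (ex 525, em 598 nm) in wells containing 15 nM Sfp, 5 uM rhodamine-CoA and 12.5 uM BHQ-2-YbbR at pH 7.6 with 10 mM MgCl2.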
# Menin-MLL FL inh: inhibitors of human menin-MLL interaction, wild-type MLL peptide. Fluorescence polarization, fluorescein-MLL peptide displacement from menin. FP activity change, % at 61.4 µM. 290,000 tested, under 10 active. AID 1766; inconclusive = falling polarisation curve, or a change in total fluorescence; inactive = total fluorescence flat and polarisation flat or rising; no compound was filed as active; the % refers to the polarisation; negative = inhibition;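 further: % of control where 0% means no effect; inhibitors lower the polarisation; unlabelled MLL peptide was the positive control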
# TRPML1 blocker: human mucolipin-1 channel inhibition | TRPML1-inducible cells, Ca2+ dye fluorescence, FDSS; hits give low values; inhibition of EC80 agonist-evoked calcium signal | activity change, negative = inhibition, % (no concentration beside the values) | 0.02% of 390,000 active | AID 624415; in the data active means activity change below about -50%; inconclusive means about -30% to -50%; inactive means above about -30%;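 further: stimulus is agonist 54-4 at its EC80 concentration; on the % scale 0 is the no-effect control and ±100 the full control effect; compound concentration not given in the record; the text of the record puts the active cut at -80%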
#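 TRPML1-DL cells, Tet-induced overnight (~16 h, 37 °C) at 1,500 cells/well, were loaded with Ca8 no-wash dye plus quencher for 45-90 min at room temperature. Compounds were pinned during FDSS kinetic reading; agonist 54-4 at EC80 (4 uM final) then added.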
# TRPML1 ag: agonists of human TRPML1 channel | Q9GZU1 | 0.12% of 410,000 active | activation, % (test concentration not listed) | TRPML1-expressing cells, Ca2+ dye fluorescence, FDSS; host cell line not named in the record; reference of the full effect not given here; in the data active = activation above about 50%; inconclusive = about 30% to 50%; inactive = below about 30%; further: 0% is about no effect; the text of the record puts the active cut at 80%
#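 Calcium fluorescence on an FDSS kinetic reader gave the read-out. Tet-induced TRPML1-DL cells were plated overnight, dye-loaded (Ca8 with quencher, 45-90 min, room temperature, dark), then read 110 s after compound addition, and again 110 s after 4uM final 54-4 (EC80).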
# An asterisk follows results filed as active; ? = inconclusive; / = not tested or not shown; & = joins results of further samples; [ ] = another dose, or the depositor's remark.
SMILES,ClpP mod,PINK1 modulator,TRPV1 potentiator,Sfp PPTase inh,Menin-MLL FL inh,TRPML1 blocker,TRPML1 ag
CCc1nc2ccc(C(=O)Nc3cccc(OC)c3)cn2c1N(CC)CCN(C)C,-1.0%,-0.1%,/,/,/,/,-0.4
CCn1c(CNC(=O)COc2ccc(C(C)C)cc2)nnc1SCC(=O)Nc1ccc(F)cc1,1.1%,-6.0%[38.3 µM],-2,?,-1.9,-4,0.6
COc1cccc(CC(=O)Nc2cc(S(=O)(=O)N3CCOCC3)ccc2N2CCN(C)CC2)c1,-0.3%,1.9%,1,/,/,4,0.2
CCOC(=O)C1=NNC(C(=O)c2ccccc2)C1c1ccc(OC)cc1 (configuration not stated),-1.5%,-0.9%,/,/,/,-20,0.9
CCCc1nc(SCC(=O)N2CCc3ccccc3C2)c2ccccc2n1,-0.2%,1.2%[38.3 µM],-11,-13%,4.3,18,2.8
COc1cccc(CNC(=O)C2CCC(CNS(=O)(=O)c3ccc(Br)s3)CC2)c1 (configuration not stated),0.5%,5.4%,/,/,/,-2,1.9
Nc1ccc(S(=O)(=O)N2CCOCC2)cc1,0.5%,-0.4%,/,/,/,/,-0.6
NC(CSCc1ccccc1Cl)C(=O)O (configuration not stated),0.6%,-2.5%,-2,?,2.1,21,0.8
O=C(Cc1nc2ccccc2[nH]c1=O)c1ccc(Cl)cc1,-0.1%,?,/,-15%,?,-13,19
Cc1ccc(NC(=O)c2cc3cc(OC(F)(F)F)ccc3[nH]2)cc1,-13%,1.8%,/,?,-0.8,28,-0.7
CCOc1ccc(OCC)c(S(=O)(=O)N2CCOCC2)c1,/,-0.8%,4,9%,-0.6,-12,-1.0
CCCC1=Nc2cc(C(=O)NC3CCCC3)ccc2Sc2ccc(C)cc21,0.7%,2.9%,/,/,/,-20,-0.3
COc1cc(C(=O)N2CCCCC2)ccc1OCC(=O)Nc1ccc(F)cc1,1.3%,-0.4%,?,/,/,6,-0.9
CCOC(=O)c1noc2ncnc(N3CCC(C)CC3)c12,1.2%,1.2%,/,/,/,10,-1.2
N#CC1=C2Sc3ccccc3N2CCCC1=O,-2.9%,13%[38.3 µM],7,15%,?,-8,0.7

# One compound at a time, from the list above. Order of values: ClpP mod, PINK1 modulator, TRPV1 potentiator, Sfp PPTase inh, Menin-MLL FL inh, TRPML1 blocker, TRPML1 ag
# CCOC(=O)c1noc2ncnc(N3CCC(C)CC3)c12 is entered as 1.2%, 1.2%, /, /, /, 10, -1.2
# NC(CSCc1ccccc1Cl)C(=O)O (configuration not stated) is entered as 0.6%, -2.5%, -2, ?, 2.1, 21, 0.8
# CCc1nc2ccc(C(=O)Nc3cccc(OC)c3)cn2c1N(CC)CCN(C)C is entered as -1.0%, -0.1%, /, /, /, /, -0.4
# CCCC1=Nc2cc(C(=O)NC3CCCC3)ccc2Sc2ccc(C)cc21 is entered as 0.7%, 2.9%, /, /, /, -20, -0.3
# CCOc1ccc(OCC)c(S(=O)(=O)N2CCOCC2)c1 is entered as /, -0.8%, 4, 9%, -0.6, -12, -1.0

# (cont.)
SMILES,ClpP mod,PINK1 modulator,TRPV1 potentiator,Sfp PPTase inh,Menin-MLL FL inh,TRPML1 blocker,TRPML1 ag
CNc1ccc(C=C2C=CC=C2)cc1,-2.6%,1.3%,/,/,/,/,0.2
CCCn1c(-c2ccc[nH]c2=O)nc2ccccc21,/,0.3%,-3,2%,-1.5,-13,-0.2
Cc1ccccc1NC(=O)CSc1nc2cc3c(cc2cc1C)CCC3,1.3%,6.1%[38.3 µM],/,-17%,3.0,-26,1.8
CC(C(=O)NCC(=O)Nc1ccc(F)c(F)c1F)N1CCN(c2ccc(O)cc2)CC1 (configuration not stated),-3.3%,0.5%,1,/,/,-1,0.3
O=C(c1ccc([N+](=O)[O-])cc1)N1c2ncnn2C2(CCCCC2)[C@@H]2CCCC[C@@H]21,-20%,-1.3%,/,/,/,15,-0.2
Cc1noc(/C=C/c2ccco2)c1S(=O)(=O)N1CCC(C(=O)N2CCc3ccccc32)CC1,-2.0%,7.5%,9,-13%,8.9,0,0.0
COc1ccccc1NC(=O)c1nnn(Cc2ccccc2)c1NC(C)=O,1.5%,-2.0%,13,9%,0.5,-23,-0.2
Cc1ccc(SCCC(=O)N2CCOCC2)cc1,-10%,/,-5,15%,1.5,3,0.2
CC(C)NC(=O)/C(=N\O)c1ccccc1,-1.7%,-2.1%,6,7%,-0.2,2,-0.4
COc1cccc(C2CC(=O)Nc3c2ccc(C)c3C)c1OC (configuration not stated),0.2%,0.1%,/,/,/,-14,1.1
Cc1ccc(NC(=O)CCn2nc(-c3ccccc3)c3ccccc3c2=O)c(C)c1,-6.0%,0.3%,/,/,/,9,4.5
CC1CCCN(C2(O)C(=O)Nc3c(C(F)(F)F)cccc32)C1 (configuration not stated),12%,11%,-7,4%,3.0,1,1.1
CC1=CC(C)C(=O)N(CCN2CCOCC2)C(C)=C1 (configuration not stated),2.3%,0.7%,/,/,/,17,-0.1
O=S(=O)(c1ccccc1F)N1CCCc2ccccc21,-0.8%,-0.3%,11,5%,5.2,34,2.9
O=C(O)COCC(=O)Nc1ccc2c(c1)CCC2,-1.2%,4.3%[38.3 µM],-1,2%,3.2,-10,2.4

# For reference, part of the list above.
SMILES,ClpP mod,PINK1 modulator,TRPV1 potentiator,Sfp PPTase inh,Menin-MLL FL inh,TRPML1 blocker,TRPML1 ag
CNc1ccc(C=C2C=CC=C2)cc1,-2.6%,1.3%,/,/,/,/,0.2
CCCn1c(-c2ccc[nH]c2=O)nc2ccccc21,/,0.3%,-3,2%,-1.5,-13,-0.2

# Retrieved by compound from above:
SMILES,ClpP mod,PINK1 modulator,TRPV1 potentiator,Sfp PPTase inh,Menin-MLL FL inh,TRPML1 blocker,TRPML1 ag
O=C(c1ccc([N+](=O)[O-])cc1)N1c2ncnn2C2(CCCCC2)[C@@H]2CCCC[C@@H]21,-20%,-1.3%,/,/,/,15,-0.2
CNc1ccc(C=C2C=CC=C2)cc1,-2.6%,1.3%,/,/,/,/,0.2
COc1cccc(C2CC(=O)Nc3c2ccc(C)c3C)c1OC (configuration not stated),0.2%,0.1%,/,/,/,-14,1.1
Cc1noc(/C=C/c2ccco2)c1S(=O)(=O)N1CCC(C(=O)N2CCc3ccccc32)CC1,-2.0%,7.5%,9,-13%,8.9,0,0.0
Cc1ccc(SCCC(=O)N2CCOCC2)cc1,-10%,/,-5,15%,1.5,3,0.2

# Additional results.
SMILES,ClpP mod,PINK1 modulator,TRPV1 potentiator,Sfp PPTase inh,Menin-MLL FL inh,TRPML1 blocker,TRPML1 ag
Cc1ccc(NC(=O)c2c(C)noc2C)cc1S(=O)(=O)N1CCOCC1,-0.7%,5.7%,/,/,/,32,0.0
O=C(Cn1c(=S)[nH]c2ccccc2c1=O)N1CCN(c2ccccc2)CC1,/,17%,-7,-3%,0.5,8,0.4
Cc1ccc(C)c(NC(=O)CN(C)C(=O)c2ccccc2OCc2c(C)noc2C)c1,3.4%,-0.1%,-4,/,/,-12,1.7
Cc1ccc(S(=O)(=O)N2CCCCC2)cc1NC(=O)CCNC(=O)c1ccccc1,4.3%,5.7%,/,/,/,-1,0.3
COCCNC(=S)N(C)[C@H]1C[C@H]2c3cc(Oc4ccccc4C)ccc3CCN2C(=O)[C@H]1[C@H](C)O,-5.6%,0.2%,/,/,/,0,0.3
O=C1NCCCC1C(=O)N/N=C/c1cc([N+](=O)[O-])ccc1O (configuration not stated),/,-0.8%,-22,16%,2.3,-2,0.4
COc1ccc(/C=N/N2C(C)CCCC2C)cc1O (configuration not stated),-0.8%,0.6%,8,8%,-2.2,-10,-0.5
C/C=C\C=C/C(=O)Nc1cccc(C2=NOC3(C2)C[C@@H](C(N)=O)N(C(=O)c2ccc(Cl)cc2)C3)c1 (some centres not stated),-1.1%,0.0%,-2,7.1µM*,0.9,1,-0.2
C=CCOC(=O)N1CCN(c2cccc(C(F)(F)F)c2)CC1,-25%,2.3%,-25,5%,0.7,19,0.6
O=C(CCCc1cccs1)Nc1nccs1,/,5.9%,5,4%,-0.9,23,0.6
O=C(/C=C/c1ccccc1)N/C(=C/c1ccccc1)C(=O)Nc1ccc(C(=O)O)cc1,1.2%,0.7%,-8,11%,5.7,22,0.1
Cc1ccc(NC(=O)CNc2cc(S(=O)(=O)N3CCOCC3)ccc2NCC2CCCO2)cc1F (configuration not stated),-4.3%,0.1%,-2,13%,/,8,0.0
CCOc1cc(N2CCOCC2)c(OCC)cc1NC(=O)CCS(=O)(=O)c1ccc(Cl)cc1,1.0%,0.4%,-30,-16%,0.4,10,-0.2
CCn1c(=O)cc(SCC(=O)N2CCN(c3ccccc3F)CC2)c2ccccc21,-8.9%&-4.9%,5.1%&3.3%,-3,-5%,15,25&17,1.3&-0.7
C=C(C)C1CC=C(CN2CCC(C(=O)OCC)CC2)CC1 (configuration not stated),-2.9%,1.1%[38.3 µM],-12,-2%,1.0,6,-0.1
CCCCCNC(=O)C1CCC(Cn2c(=O)c3sccc3n(CC)c2=O)CC1 (configuration not stated),-1.2%,0.0%,/,/,/,20,0.2
COc1ccccc1-c1nnc(SC/C(O)=C(\C#N)c2nc3ccccc3[nH]2)n1C1CCCCC1,4.3%,4.2%,23,-28%,9.9,4,-0.4
COc1ccc(-c2csc(NC(=O)c3cc(=O)c4ccccc4o3)n2)cc1OC,1.4%,1.1%,15,-6%,1.1,-6,2.3
Cn1c(-c2ccc(F)cc2)cnc1NCc1ccccc1,-5.7%,8.8%[38.3 µM],-22,-20%,3.1,63,-0.4
COc1cc(C2C(C#N)=C(N)OC3=C2C(=O)CCC3)c([N+](=O)[O-])cc1OC (configuration not stated),-2.3%,-0.6%,-3,-72%,?,2,7.7
Cn1c(SCC(=O)N2CCCCCC2)nnc1-c1ccco1,/,0.8%,2,8%,3.5,-7,-0.1
O=c1ccc2cc(S(=O)(=O)Nc3ccc(OC(F)(F)F)cc3)ccc2[nH]1,-0.6%,-0.5%,/,/,/,-14,0.1
Cc1ccccc1Nc1nnc(-c2ccc(C)c(S(=O)(=O)N3CCN(C)CC3)c2)c2ccccc12,-0.1%,1.3%,/,/,/,12,-0.8
